FPR binder: binds the human formylpeptide receptor FPR; P21462; 0.74% of 24,000 active; inhibition, %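 (tested at 6.7 µM)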; FPR-expressing cells, fluorescent ligand binding, flow cytometry;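 also: 0% = buffer wells and 100% = receptor blocker peptide wells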
Target sequence (P21462 whole entry, looked up): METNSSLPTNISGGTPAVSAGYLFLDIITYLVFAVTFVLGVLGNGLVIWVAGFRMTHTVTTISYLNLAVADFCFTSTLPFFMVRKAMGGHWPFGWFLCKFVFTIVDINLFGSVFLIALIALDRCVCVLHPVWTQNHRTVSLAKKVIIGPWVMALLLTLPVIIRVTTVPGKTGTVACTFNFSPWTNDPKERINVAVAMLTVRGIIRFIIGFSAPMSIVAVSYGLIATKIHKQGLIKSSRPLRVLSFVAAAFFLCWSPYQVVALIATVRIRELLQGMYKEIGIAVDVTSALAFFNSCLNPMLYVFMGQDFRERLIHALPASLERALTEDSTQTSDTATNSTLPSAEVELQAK
VCAM-1 down imaging: inhibitors of TNFa-induced VCAM-1 surface display, imaging, high-content imaging, pooled HUVEC, TNFa stimulus (AID 456) | HUVEC TNFa-induced VCAM-1 surface expression, immunofluorescence imaging; numbers were filed only for top-ranked candidate wells | one-dose inhibition, % at 5 µM; IC50 in µM for titrated hits | 0.2% of 10,000 active;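 active = top tenth filtered wells with inhibition above zero that passed visual or statistical confirmation; inactive = the rest, including hits rejected on review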;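 also: 0% = stimulated vehicle wells and 100% = unstimulated cells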
VCAM-1 down: inhibitors of TNFa-induced VCAM-1 surface display, cell-based, plate reader, pooled HUVEC, TNFa stimulus (AID 454) | HUVEC TNFa-induced VCAM-1 surface immunofluorescence, plate reader; numbers were filed only for top-ranked candidate wells | inhibition, % at 5 µM | 0.2% of 10,000 active;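 active = compound among top-ranked inhibitors of TNF-induced VCAM-1 adhesion protein staining, with the hit upheld by image or statistical review; inactive = the rest, including hits rejected on review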;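 also: 0% = TNFa with vehicle and 100% = cells without TNFa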
VCAM-1 up imaging: enhancers of VCAM-1 display on endothelial cells, imaging, high-content imaging, pooled HUVEC, TNFa stimulus (AID 457). calls only. Pooled HUVEC, TNFa-induced VCAM-1 immunofluorescence imaging; hits of this screen are not shown here. 0.2% of 10,000 active;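 active = a top-ranked rise in VCAM-1 staining upheld on image or statistical review; inactive = the rest, including candidates rejected on review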;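 also: compounds tested at 5 µM in the well; cells exposed to compound for 24 hours before fixing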
FPRL1 ligand: binds the human formylpeptide receptor-like-1 FPRL1; P25090; FPRL1-expressing cells, fluorescent ligand binding inhibition, flow cytometry; inhibition, %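 (tested at 6.7 µM)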; 0.3% of 24,000 active; AID 441;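 also: 0% = buffer alone and 100% = receptor blocker peptide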
Target sequence (P25090 whole entry, looked up): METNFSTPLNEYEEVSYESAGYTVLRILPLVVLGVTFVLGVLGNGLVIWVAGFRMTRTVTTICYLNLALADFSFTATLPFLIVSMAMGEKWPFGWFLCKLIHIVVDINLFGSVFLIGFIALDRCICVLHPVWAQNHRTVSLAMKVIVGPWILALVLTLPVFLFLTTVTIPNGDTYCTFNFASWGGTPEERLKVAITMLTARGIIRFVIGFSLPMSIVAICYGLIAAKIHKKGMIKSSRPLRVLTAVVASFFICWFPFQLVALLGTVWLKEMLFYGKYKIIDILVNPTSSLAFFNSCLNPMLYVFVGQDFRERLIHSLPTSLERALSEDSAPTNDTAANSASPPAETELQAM
Active calls of the source: *; i = inactive; · = no result given.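 The calls were made as follows, unless noted: active = mean above 30%; inconclusive = self-fluorescent; inactive = the rest.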 A portion of the library; count on the stated rates, not on these rows.

SMILES	FPR binder	VCAM-1 down imaging	VCAM-1 down	VCAM-1 up imaging	FPRL1 ligand
Cc1nc(C)c(C(=O)C2=C(O)C(=O)N(CCN3CCOCC3)C2c2ccco2)s1 (configuration not stated)	5	i	i	i	3
Cc1cccc(NC(=O)COc2nsnc2N2CCOCC2)c1	3	·	·	·	8
COc1ccc(N=C2C(=O)Nc3ccccc32)cc1	6	i	i	i	0
O=C(NCC1CCCO1)c1cccc(N2CCCC2=O)c1 (configuration not stated)	-2	i	i	i	-6
O=C(Nc1ccc2c(c1)OCO2)c1cnc2n(c1=O)CCS2	-6	·	·	·	-2
CSc1nc(-c2ccco2)nn1S(=O)(=O)c1ccc(C)cc1	0	·	·	·	1
O=C(Cc1c(C(=O)O)[nH]c2ccccc12)NC1CCN(Cc2ccccc2)CC1	0	·	·	·	0
O=C(c1ccco1)N1CCN(C(=O)c2cccc3c2C(=O)N(C2CCCCC2)C3)CC1	2	·	·	·	3
COc1cccc(C2CC(c3cccc(C)c3)n3ncnc3N2)c1 (configuration not stated)	2	·	·	·	-1
Cn1nc(-c2ccc(C(=O)N3CCN(c4ccccc4)CC3)cc2)c2ccccc2c1=O	-2	i	i	i	-1
Cc1ccc(S(=O)(=O)N(C)CC(=O)NC2CCCC2)cc1	3	i	i	i	6
CCC(=O)N1CCc2cc(Br)cc(S(=O)(=O)NCC3CCCO3)c21 (configuration not stated)	2	·	·	·	-2
COC(=O)C(C)NC(=O)C(C)NC(=O)OCc1ccccc1 (configuration not stated)	-7	·	·	·	-4
COc1ccc(-c2cc(C(=O)Nc3c(C)nn(Cc4ccccc4)c3C)no2)cc1	-4	·	·	·	-5
CC(C)(NC(=O)N1CCCC1)c1cccc(C(C)(C)NC(=O)N2CCCC2)c1	9	i	i	i	-4
Cc1nc2sc(C(c3ccco3)N3CC(C)OC(C)C3)c(O)n2n1 (configuration not stated)	-3	·	·	·	-8
CCOC(=O)C1C(c2ccc(C)o2)NC(=O)NC1(O)C(F)(F)F (configuration not stated)	3	·	·	·	3
CN(CCCNC(=O)c1ccc(N2CCCC2=O)cc1)c1ccccc1	-5	·	·	·	0
CCOC(=O)N1CCC(NC(=O)c2cc(C(=O)Nc3ccc(F)cc3F)ccc2CO)CC1	-2	·	·	·	-1
CCN1C(=O)c2ccc(-c3nc4ccccc4c(=O)o3)cc2C1=O	0	·	·	·	0
O=C(NCCN1CCc2ccccc2C1)C1CC(=O)N(C2CCCC2)C1 (configuration not stated)	1	·	·	·	-9
CC(=O)N1CCN=C1SCc1c(F)cccc1Cl	0	i	i	i	4
O=c1c2c(nc3nc(COc4ccccc4)[nH]n13)CCC2	4	i	i	i	2
COCCNC(=O)Cn1cnc2sc(C)c(S(=O)(=O)N3CCC(C)CC3)c2c1=O	-4	·	·	·	-6
COC(=O)c1nc(N)sc1-c1ccccc1	-1	i	i	i	-2
Cc1cccc(-c2noc(CN(C(=O)c3c(-c4ccccc4Cl)noc3C)C(C)C)n2)c1	-8	·	·	·	0
CCc1ccccc1OCCCCCNCCO	6	i	i	i	-6
COc1ccccc1OCC(=O)N1CCN(c2ccccc2OC)CC1	-3	i	i	i	5
CCOC(=O)C1CCN(C(=O)CCCCn2c(=O)[nH]c3ccccc3c2=O)CC1	-26	i	i	i	3
CC(C)CC(=O)N1CCN(S(=O)(=O)c2ccc(F)cc2)CC1	-9	i	i	i	1

In the list so far, four have fluorine:
SMILES	FPR binder	VCAM-1 down imaging	VCAM-1 down	VCAM-1 up imaging	FPRL1 ligand
CCOC(=O)C1C(c2ccc(C)o2)NC(=O)NC1(O)C(F)(F)F (configuration not stated)	3	·	·	·	3
CCOC(=O)N1CCC(NC(=O)c2cc(C(=O)Nc3ccc(F)cc3F)ccc2CO)CC1	-2	·	·	·	-1
CC(=O)N1CCN=C1SCc1c(F)cccc1Cl	0	i	i	i	4
CC(C)CC(=O)N1CCN(S(=O)(=O)c2ccc(F)cc2)CC1	-9	i	i	i	1

(more compounds)
SMILES	FPR binder	VCAM-1 down imaging	VCAM-1 down	VCAM-1 up imaging	FPRL1 ligand
Clc1ccc(Cc2nn3c(-c4ccncc4)nnc3s2)cc1	47*	i	i	i	54*
CCOC(=O)c1sc(NC(=O)COC(=O)Cn2cnc3ccccc32)c(C(=O)OCC)c1C	8	i	i	i	3
Cc1cccc(N2CCN(C(=O)CCNS(=O)(=O)c3ccc4c(c3)CCC(=O)N4)CC2)c1C	-7	·	·	·	-2
COc1cccc(-c2nnc(NC(=O)c3ccccc3Br)o2)c1	-2	i	i	i	0
CCOC(=O)C1=C(C)NC(=O)NC1c1ccc(OCCO)c(OC)c1 (configuration not stated)	-4	i	i	i	-5
OCc1n[nH]c(CO)n1	1	·	·	·	4
CN(CCCNC(=O)CN1C(=O)CC(C)(C)S(=O)(=O)c2ccccc21)C1CCCCC1	1	·	·	·	4
Cn1ccnc1SCC(=O)Nc1ccc2nc(SCC(=O)NC3CC3)sc2c1	2	·	·	·	3
Cn1[nH]c(=O)c2ccccc2c1=O	8	·	·	·	0
Cc1c(C(=O)OCC2CCCO2)[nH]c2c1C(=O)CC(c1ccc(N(C)C)cc1)C2 (configuration not stated)	-1	·	·	·	-5
O=C(NC1CCCC1)C1CCCN1S(=O)(=O)c1cccc2cccnc12 (configuration not stated)	-6	·	·	·	1
CC(C)(C)NC(=O)CN(C(=O)C1CSC(=O)C1)c1ccc2c(c1)OCCO2 (configuration not stated)	-2	i	i	i	2
CN1CCN(C(=O)c2ccc3c(=O)n(CCc4ccccc4)c(=S)[nH]c3c2)CC1	9	i	i	i	2
O=C(NCc1ccc(F)cc1)c1ccc(CS(=O)(=O)Cc2ccc(F)cc2)o1	2	·	·	·	3
CCc1nn(-c2cc(Cl)ccc2OC)c2c1C(=O)CCC2	8	·	·	·	-1
CCOC(=O)N1CCC(NC(=O)CCC(=O)c2ccccc2)CC1	-4	·	·	·	3
c1ccc(-c2nnc3ccc(N4CCC5(CC4)OCCO5)nn23)cc1	-1	·	·	·	-3
O=C(c1ccco1)N1CCN(C(=O)C2CCN(S(=O)(=O)c3cccs3)CC2)CC1	-2	·	·	·	7
CCOC(=O)N1CCN(CCC(=O)c2ccc(Cl)cc2)CC1	-5	i	i	i	-3
O=c1oc2ccccc2n1CCc1ccccc1	4	i	i	i	-3
CC1CN=C(N(C(=O)Nc2ccccc2)c2ccc(S(=O)(=O)N3CCOCC3)cc2)S1 (configuration not stated)	-2	i	i	i	-3
CCc1ccc(N2CC34C=CC(O3)C(C(=O)OC(C)C)C4C2=O)cc1 (configuration not stated)	-3	·	·	·	-2
CCOC(=O)c1ccc2c(c1)NC(=O)C(N1CCN(c3ccc(OC)cc3)CC1)S2 (configuration not stated)	4	·	·	·	-8
COC(=O)c1cc(=O)nc2scc(C)n12	-2	·	·	·	-2
CCOC(=O)N1CCC(NC(=O)C2CCN(S(=O)(=O)c3c(C)noc3C)CC2)CC1	-1	·	·	·	-10
CCOC(=O)c1ccc(NC2c3ncccc3C(=O)N2Cc2ccc(F)cc2)cc1 (configuration not stated)	9	·	·	·	-7
COC(=O)c1cc(S(=O)(=O)N2CCC(C)CC2)ccc1F	1	i	i	i	-3
CCN(CCCNC(=O)C1CCN(S(=O)(=O)c2cnc[nH]2)CC1)c1ccccc1	-1	·	·	·	-1
c1ccc2[nH]c(SN3CCOCC3)nc2c1	-5	·	·	·	-4
CCC(C)NC(=O)C(NS(=O)(=O)c1ccc2c(c1)c(=O)n(C)c(=O)n2C)c1ccccc1 (configuration not stated)	12	·	·	·	5
CCCN(c1ccc(C(C)C)cc1)S(=O)(=O)c1c(C)noc1C	5	·	·	·	1
COc1ccc(OC)c(NS(=O)(=O)c2ccc3c(c2)CCC(=O)N3)c1	2	·	·	·	2
COc1ccc(-n2c(Cc3cccn3C)nnc2SCC(=O)N2CCC(C)CC2)cc1	2	·	·	·	1
CCCCC(O)(C(NC=O)C(=O)OC)C(F)(F)F (configuration not stated)	4	i	i	i	2
CCCOc1ccc(C(CC(=O)O)NS(=O)(=O)c2ccc(NC(C)=O)cc2)cc1 (configuration not stated)	3	·	·	·	-3
CCc1ccc(-c2nc(CN3CCC(C(=O)NCCN(CC)c4ccccc4)CC3)c(C)o2)cc1	0	·	·	·	15
COc1ccc(C)cc1NC(=O)C1CCCN(S(=O)(=O)c2cnc[nH]2)C1 (configuration not stated)	0	·	·	·	-2
COc1cc(OC)cc(-c2nnc(SCC(=O)Nc3cc(C)on3)o2)c1	-3	i	i	i	0
CC(=O)c1ccc(-n2nnnc2SCC(=O)N2CCc3ccccc3C2)cc1	-3	i	i	i	0
COc1ccc(-c2cn3c(C)c(C(=O)Nc4cccc(NC(C)=O)c4)sc3n2)cc1	3	·	·	·	-13
CCOC(=O)c1ccc(NC(=O)CCc2nc(-c3cccc(C)c3)no2)cc1	-10	i	i	i	0
O=C(c1ccc(COc2ccc(F)cc2)o1)n1cccn1	-3	·	·	·	2
Cc1c(C#N)sc2nc(-c3ccccc3)nc(N3CCCC3)c12	-4	i	i	i	-4
Cc1cccc(N2CN=c3s/c(=C\c4ccncc4)c(=O)n3C2)c1	-3	i	i	i	-3
CCN(CC)S(=O)(=O)c1ccc2c(c1)nc(SCC(=O)NC1CC1)n2-c1ccccc1OC	-2	i	i	i	0
Cc1ccc(C2C(C(=O)c3sc(C)nc3C)=C(O)C(=O)N2CCN2CCOCC2)o1 (configuration not stated)	35*	·	·	·	26
CCOC(=O)c1[nH]nc(C(=O)c2ccc(Br)cc2)c1O	4	·	·	·	4
Cc1ccc(S(=O)(=O)N2CCC(C(=O)N3CCC(C(=O)NCc4cccnc4)CC3)CC2)cc1	-4	·	·	·	-1
COc1cccc(NC(=O)C2CCCN2C(=O)OCc2ccccc2)c1 (configuration not stated)	4	·	·	·	0
COc1ccc(N2C(=O)CCC(C(=O)N3CCC(C(N)=O)CC3)C2c2ccc(F)cc2)cc1 (configuration not stated)	-5	·	·	·	-4
CC(C)(C)n1ncc2c(=O)n(CC(=O)N3CCc4ccccc43)cnc21	-1	·	·	·	8
CC1CCN(S(=O)(=O)c2ccc(Br)s2)CC1	9	i	i	i	-5
CCOc1ccc2[nH]c(=O)c(CN(Cc3nnnn3CCc3ccccc3)CC3CCCO3)cc2c1 (configuration not stated)	4	i	i	i	9
CCCN(CCC)CCNC(=O)c1cc2c(=O)n(C)c3ccccc3c2n1C	1	i	i	i	6
COc1ccc(OC)c(Nc2nc(-c3cccs3)cs2)c1	-4	i	i	i	1
CC(C)CCNC(=O)CCNS(=O)(=O)c1ccc(Cl)cc1	4	i	i	i	5
COc1cccc(C2C(C(=O)c3cccs3)=C(O)C(=O)N2CCCn2ccnc2)c1OC (configuration not stated)	32*	i	i	i	-1
Cc1ccc(NC(=O)c2cc(C)on2)cc1	-4	·	·	·	-1
Cc1cc(C(=O)N2CCOCC2)n(-c2ccccc2)n1	-5	·	·	·	5
CCS(=O)(=O)NCC(c1cccnc1)N1CCN(c2ccc(F)cc2)CC1 (configuration not stated)	-3	·	·	·	3

Ordered by the number under FPR binder (descending): three from the list above
SMILES	FPR binder	VCAM-1 down imaging	VCAM-1 down	VCAM-1 up imaging	FPRL1 ligand
CCCN(CCC)CCNC(=O)c1cc2c(=O)n(C)c3ccccc3c2n1C	1	i	i	i	6
CC(C)(C)n1ncc2c(=O)n(CC(=O)N3CCc4ccccc43)cnc21	-1	·	·	·	8
Cc1cc(C(=O)N2CCOCC2)n(-c2ccccc2)n1	-5	·	·	·	5

Next part:
SMILES	FPR binder	VCAM-1 down imaging	VCAM-1 down	VCAM-1 up imaging	FPRL1 ligand
Clc1cccc2sc(N3CCCCC3)nc12	-3	·	·	·	-5
O=C(CSc1nc2ccccc2c(=O)n1CC1CCCO1)NCC1CCCO1 (configuration not stated)	-2	·	·	·	3
O=c1c2cc(N3CCOCC3)ccc2[nH]c(=S)n1CCCN1CCN(c2ccccc2F)CC1	-3	·	·	·	-1
CCOC(=O)C(NC(=O)CC)(Nc1ccc(S(=O)(=O)Nc2ncccn2)cc1)C(F)(F)F (configuration not stated)	-5	·	·	·	2
CC(=O)c1ccc(NC(=O)c2noc3c2CCCCC3)cc1	-1	i	i	i	-2
CCOC(=O)c1c(N)sc(C(=O)N2CCOCC2)c1C	-7	i	i	i	-6
CCN(CC)c1ccc(NC(=O)CN2CCN(CC(=O)Nc3ccc(F)cc3)CC2)cc1	-2	·	·	·	3
CCOC(=O)NC(=O)CSc1nnc(C)s1	-6	i	i	i	-4
CCOC(=O)c1ccc(NS(=O)(=O)c2cccc3nsnc23)cc1	-6	i	i	i	1
CC(=O)Nc1nc(-c2ccccc2)nc(C)c1C(C)=O	-9	i	i	i	3
Cc1ccc(S(=O)(=O)NCC(=O)N(CC(=O)NC2CCCCC2)Cc2ccco2)cc1	-1	i	i	i	-1
C[C@]12C[C@H](O)[C@H]3[C@@H](CCC4=CC(=O)CC[C@@]43C)[C@@H]1CC[C@@H]2C(=O)CO	8	i	i	i	11

Screening data: PubChem BioAssay, several laboratories
